Bioassay records (PubChem BioAssay)
PINK1 modulator = modulators of PINK1 expression. actives 0.2% (n = 410,000). PINK1 immunofluorescence, high-content cytometry, 24 h. Potency, µM (series often up to 76.6 µM), for inactives: top-dose activation (PINK1 increase), usual class: activators. AID 624263; active = well fitted activation curve with a large enough effect; inconclusive = small, poorly fitted or top-dose-only effect; inactive = flat fitted curve, though single readings scatter; cell line not stated here;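 note: potency is the fitted concentration of half-maximal effect; % of control where 0% means no effect; nearly all actives have a fitted effect of over 65% in size; a mitochondrial uncoupler was the plate control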
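PINK1 protein level read as immunofluorescence by microplate cytometer in a fixed, stained stable cell line after 24 h exposure to five compound concentrations, with CCCP as control.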
D2 PAM = potentiates the human D2 dopamine receptor allosterically | P14416 | DiscoveRx D2 beta-arrestin cells, luminescence, 90 min; 100% = 57 uM dopamine signal | potentiation, % (no concentration beside the values) | actives 0.23% (n = 360,000); active = potentiation of 50% or more; inconclusive = 30% to 50%; inactive = 30% or less;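 note: compound concentration not given in the record; tested on top of an EC20 dose of dopamine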
Target sequence (P14416 whole entry, looked up): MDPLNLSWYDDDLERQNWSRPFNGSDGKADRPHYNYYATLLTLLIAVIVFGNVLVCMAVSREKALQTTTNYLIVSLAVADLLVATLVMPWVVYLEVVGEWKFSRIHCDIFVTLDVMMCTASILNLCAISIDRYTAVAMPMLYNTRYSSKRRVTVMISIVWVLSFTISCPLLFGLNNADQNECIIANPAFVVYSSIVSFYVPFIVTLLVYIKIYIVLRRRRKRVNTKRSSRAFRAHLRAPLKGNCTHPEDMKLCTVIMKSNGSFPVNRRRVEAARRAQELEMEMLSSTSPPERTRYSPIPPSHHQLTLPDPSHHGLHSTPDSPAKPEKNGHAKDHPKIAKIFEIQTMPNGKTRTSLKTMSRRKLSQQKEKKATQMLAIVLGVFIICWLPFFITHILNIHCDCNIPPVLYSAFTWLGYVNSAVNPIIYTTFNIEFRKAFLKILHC
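PathHunter beta-arrestin assay in DiscoveRx D2 cells. Compounds were added with an EC20 of dopamine (50 nM final) for 90 min at 37 deg C. Luminescence was read 1 h after detection reagent, with 57 uM dopamine as the EC100 control.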
D2 ag = human D2 receptor agonism in beta-arrestin assay | DiscoveRx PathHunter D2 beta-arrestin, luminescence, 90 min; 100% = 57 uM dopamine signal | activation, % (test concentration not listed) | actives 0.084% (n = 360,000) | AID 624465; in the data active = activation above about 40%; inconclusive = about 15% to 40%; inactive = below about 15%; note: compound concentration not given in the record; the text of the record calls up to 30% inactive
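DiscoveRx PathHunter D2 beta-arrestin cells (2,100/well) attached overnight, then compound-stimulated 90 min at 37 C in HBSS/10 mM HEPES/0.1% Tween-20 buffer; beta-galactosidase complementation read by luminescence after 1 h at ambient temperature. Dopamine 57 uM final (EC100) as control.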
TRPML1 blocker = blocks the human TRPML1 channel. Q9GZU1. TRPML1-inducible cells, Ca2+ dye fluorescence, FDSS; hits give low values; inhibition of EC80 agonist-evoked calcium signal. activity change, negative = inhibition, % (no concentration beside the values). actives 0.02% (n = 390,000). AID 624415; in the data active means activity change below about -50%; inconclusive means about -30% to -50%; inactive means above about -30%;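 note: stimulus is agonist 54-4 at its EC80 concentration; % is set by controls: 0 for no effect and ±100 for the full control effect; compound concentration not given in the record; the text of the record puts the active cut at -80%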
Target sequence (Q9GZU1 whole entry, looked up): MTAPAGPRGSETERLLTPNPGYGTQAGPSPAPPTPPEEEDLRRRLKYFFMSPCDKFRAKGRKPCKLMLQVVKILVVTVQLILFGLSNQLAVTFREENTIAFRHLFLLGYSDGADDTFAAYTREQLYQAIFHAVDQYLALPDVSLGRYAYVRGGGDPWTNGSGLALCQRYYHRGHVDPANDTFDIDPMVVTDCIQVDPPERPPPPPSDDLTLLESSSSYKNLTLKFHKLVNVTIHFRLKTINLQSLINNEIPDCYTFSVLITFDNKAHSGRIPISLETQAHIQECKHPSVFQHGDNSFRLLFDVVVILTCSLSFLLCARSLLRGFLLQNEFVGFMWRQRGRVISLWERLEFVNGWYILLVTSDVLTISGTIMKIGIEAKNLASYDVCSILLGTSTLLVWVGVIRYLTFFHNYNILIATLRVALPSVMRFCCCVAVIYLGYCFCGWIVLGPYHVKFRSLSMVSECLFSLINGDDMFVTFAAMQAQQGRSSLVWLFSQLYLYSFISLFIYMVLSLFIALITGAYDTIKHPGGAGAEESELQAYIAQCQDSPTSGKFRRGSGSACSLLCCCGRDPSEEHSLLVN
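Tet-induced TRPML1-DL cells loaded with Ca8 no-wash calcium dye were read kinetically on FDSS. Compound addition was followed by EC80 agonist 54-4 (4 uM final); inhibition was read over 110 s.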
Six1-Eya2 blk = blocks human Six1 binding to Eya2; Q15475+O00167; AlphaScreen GST-Six1/His-Eya2 binding, biochemical; hits give low values; control for the full effect not named in the record; activity change, % (concentration not given with the values); actives 0.56% (n = 360,000); AID 651725; in the data active = activity change below about -65%; inconclusive = about -30% to -65%; inactive = above about -30%; note: % is set by controls: 0 for no effect and ±100 for the full control effect
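GST-Six1 + His-Eya2 (5X stock: 250/500 nM); Tris pH 8.0, 300 mM NaCl, 0.05% BSA, 0.02% Tween 20; GSH donor/Ni acceptor beads; 1 h 37 °C dark; AlphaScreen readout.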
TRPML1 agonist = activates the human TRPML1 channel; activation, % (concentration not given with the values); TRPML1-expressing cells, Ca2+ dye fluorescence, FDSS; host cell line not named in the record; reference of the full effect not given here; Q9GZU1; actives 0.12% (n = 410,000); in the data active = activation above about 50%; inconclusive = about 30% to 50%; inactive = below about 30%; note: 0% is about no effect; the text of the record puts the active cut at 80%
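Tet-induced TRPML1-DL cells, 1,500 per well, cultured overnight, were loaded with a no-wash Ca2+ dye for 45–90 min. Calcium fluorescence was recorded on the FDSS for 110 s after compound addition, before the EC80 agonist (4 uM 54-4) was added.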
Starred values were filed as active, the others as inactive; ? = inconclusive; · = not tested or not shown; [ ] = remark or other dose.

SMILES	PINK1 modulator	D2 PAM	D2 ag	TRPML1 blocker	Six1-Eya2 blk	TRPML1 agonist
COc1ccc(/C=N/NC(=O)CNS(=O)(=O)c2ccccc2)cc1	-0.6%	-10	1.9	-20	-1	1.7
C=CC[C@@H](Cc1ccc(F)cc1)C(=O)OC[C@H]1CCCN1C(=O)[C@H](CC=C)CC(=O)NCCO	0.2%	-3	-3.1	1	-4	-0.5
Cc1nnc(Nc2ccc3c(c2)OCO3)c2ccccc12	-1.6%	-36	-5.3	12	-16	-1.1
O=S(=O)(c1cccc2ccccc12)N1CCC2CC1c1cc(-c3ccc(F)cc3)ccc12 (configuration not stated)	1.2%	0	-0.9	-6	-1	1.0
O=C1NCCCC1C(=O)N/N=C/c1cccc(Cl)c1 (configuration not stated)	0.4%	-5	-8.5	8	4	0.4
CC(=O)Oc1ccc2nc(-c3ccc(Br)o3)oc(=O)c2c1	1.1%	-2	-4.8	65	-4	0.2
COc1nc(-c2ccccc2)c2cc(Br)ccc2n1	1.3%	-18	-3.2	27	17	-1.2
Cc1cc(-c2ccn[nH]2)c(C)s1	2.9%	-8	9.1	?	-6	0.3
Cc1cccc(N2CCN(C(=O)c3ccc(CNc4c(N5CCC(C)CC5)c(=O)c4=O)cc3)CC2C)c1 (configuration not stated)	6.2%	-9	-2.0	36	0	0.6
COc1ccc(NC(=O)C2=CCN(S(=O)(=O)c3ccccc3)CC2)cc1OC	-0.5%	-11	1.9	-4	-4	0.7
Cc1nn(CC(C)C(=O)N2CCN(S(=O)(=O)c3ccc(Cl)cc3)CC2)c(C)c1C (configuration not stated)	1.3%	-3	-3.8	-5	2	0.3
CCN(CC)C(=O)c1cccc(NC(=O)c2cc(-c3ccccn3)nc3ccccc23)c1	0.5%	3	-5.8	-4	-7	1.1
O=C(Nc1c[nH]c(=O)[nH]c1=O)c1ccccc1Cl	-1.2%	-10	4.4	-6	5	0.8
O=C(NNC(=O)c1ccc(-c2ccccc2)cc1)c1ccccc1	-0.3%	1	-2.4	8	-2	-0.1
O=C(NCCN1CCOCC1)c1cc(-c2ccccc2)on1	-4.5%[38.3 µM]	-4	-1.3	37	3	0.7
CCCCNC(=O)CSc1nc2cc3c(cc2c(=O)n1CCCCCC(=O)NCc1ccc(OC)cc1)OCO3	0.7%	·	·	-12	·	2.0
CCn1c(C)c2c([n+]1CC)CC(C)(C)CC2=O	·	-7	-2.8	-3	0	0.7
C=CCC1(Cl)C(=O)C(Cl)=C(N2CCN(C)CC2)C1(OC)OC (configuration not stated)	0.9%	-13	-0.2	30	7	1.4
Cn1c(=O)c2cccnc2c(=O)n1C	3.2%	-10	-2.8	24	-1	0.0
COc1ccc(-c2cc(C)no2)cc1S(=O)(=O)NCCCN1CCCCCC1	-1.4%	-35	-2.6	8	-5	0.6
O=C(NCCN1CCOCC1)c1ccccc1[N+](=O)[O-]	0.5%	-18	-3.6	-3	4	-0.9
Cc1cccc(N2CC(C(=O)Nc3nnc(SCC(=O)N4CCOCC4)s3)CC2=O)c1 (configuration not stated)	-0.2%	-5	2.2	-5	-5	-0.4
Cc1c(C)n(CCCN(C)C)c2ncnc(Nc3ccc(F)cc3)c12	-1.0%	-6	-7.4	·	-9	·
Nc1ccn(Cc2cccc(Cl)c2)n1	8.3%	-8	-3.1	-26	-3	-0.2
Cc1ccc(NCc2ccc(O)c3ncccc23)cc1C	?	2	9.6	8	-69*	-0.8
COc1cc(OC)cc(C(=O)NNC(=S)NCc2ccco2)c1	-1.1%	-9	-4.6	-4	8	0.0
CCC1=C(OC(=O)N(CC)CC)N2C(=O)OC(=NCC(=O)OC)[C@]2(Cc2ccccc2)[C@H]2C1=CC[C@H]1C(=O)N(CC(=O)OC)C(=O)[C@H]12	4.6%	-11	-3.6	2	-2	-0.1
CCC(C)N1C(=O)CCC1C(=O)N1CCN(c2ccccc2F)CC1 (configuration not stated)	0.1%[38.3 µM]	-16	-3.3	23	-1	2.1
Cc1nn2c(CN(C(=O)COc3ccccc3)c3ccccc3)nnc2c2ccccc12	3.6%	-17	-6.4	0	0	0.7
CN(C(=O)CSc1cccc[n+]1[O-])C1CCCCC1	-0.1%	-4	1.4	27	1	1.6
O=C(O)c1cccnc1SC1CC(=O)N(Cc2ccccc2)C1=O (configuration not stated)	-1.1%	-1	0.2	-1	2	-1.0
COc1ccc(C2N3CC4(C)CN2CC(C)(C3)C4)cc1OC (configuration not stated)	-1.8%	2	-2.4	-11	-1	4.1
N#CCCN(C(=O)COC(=O)c1ccc(Cl)nc1)c1ccc2c(c1)OCCO2	0.4%	-2	-1.0	-1	-2	-1.1
COc1ccc(NC(=O)CN(C)C(=O)c2ccccc2OC)cc1	-0.4%	-1	-0.9	-2	1	-0.6
C=CCNC(=O)CCCCC(=O)NCC=C	12%[38.3 µM]	10	-1.0	18	0	-0.7
COc1ccc(NC(=O)CCCn2cnc3ccccc3c2=O)cc1	-1.3%	-4	2.7	-7	0	-1.4

Compound profiles, as listed above.
Shown for `CCC(C)N1C(=O)CCC1C(=O)N1CCN(c2ccccc2F)CC1` (configuration not stated) → PINK1 modulator: 0.1%[38.3 µM]; D2 PAM: -16; D2 ag: -3.3; TRPML1 blocker: 23; Six1-Eya2 blk: -1; TRPML1 agonist: 2.1
Shown for `C=CCNC(=O)CCCCC(=O)NCC=C` → PINK1 modulator: 12%[38.3 µM]; D2 PAM: 10; D2 ag: -1.0; TRPML1 blocker: 18; Six1-Eya2 blk: 0; TRPML1 agonist: -0.7
Shown for `Cc1ccc(NCc2ccc(O)c3ncccc23)cc1C` → PINK1 modulator: ?; D2 PAM: 2; D2 ag: 9.6; TRPML1 blocker: 8; Six1-Eya2 blk: -69*; TRPML1 agonist: -0.8

Two of the compounds above, field by field.
CCC1=C(OC(=O)N(CC)CC)N2C(=O)OC(=NCC(=O)OC)[C@]2(Cc2ccccc2)[C@H]2C1=CC[C@H]1C(=O)N(CC(=O)OC)C(=O)[C@H]12
  PINK1 modulator: 4.6%	D2 PAM: -11	D2 ag: -3.6	TRPML1 blocker: 2	Six1-Eya2 blk: -2	TRPML1 agonist: -0.1

CCC(C)N1C(=O)CCC1C(=O)N1CCN(c2ccccc2F)CC1 (configuration not stated)
  PINK1 modulator: 0.1%[38.3 µM]	D2 PAM: -16	D2 ag: -3.3	TRPML1 blocker: 23	Six1-Eya2 blk: -1	TRPML1 agonist: 2.1

Going on with the list:
SMILES	PINK1 modulator	D2 PAM	D2 ag	TRPML1 blocker	Six1-Eya2 blk	TRPML1 agonist
Cc1cccc(C)c1NC(=O)Cn1nnc(-c2ccc(CN3CCC(C)CC3)cc2)n1	8.5%	-10	-7.2	-3	2	-0.9
CCc1ccccc1NC(=O)CCn1cccn1	-1.0%	·	·	-17	·	0.4
CN1CCc2c(C#N)c(N3CCCCC3)nc(N3CCOCC3)c2C1	1.2%	-13	-3.9	28	7	-1.1
CCN(CC)C(=O)c1ccc2nc(-c3ccccc3)c(-c3ccccc3)nc2c1	2.1%	-1	-0.1	35	-2	1.2
CCOC(=O)c1c(-c2ccccc2)csc1NC(=O)c1nc(S(=O)(=O)CC)ncc1Cl	5.0%	·	·	35	·	0.7
Nc1cccc(-c2cn3ccsc3n2)c1	0.6%	·	·	3	·	-0.3
Cn1c(=O)c2cc(NC(=S)NC3CC3)ccc2n1C/C=C/c1ccccc1	-0.9%	-4	6.1	·	-8	-0.7
O=C1CN(C(=O)c2ccccc2)C(c2ccccc2)c2cc(F)ccc2N1 (configuration not stated)	-1.9%	-3	-3.2	-11	3	0.4
O=C(CNC(=O)c1ccc(Cl)cc1Cl)NCC(=O)Nc1ccccc1N1CCOCC1	-0.1%	2	-2.0	-16	5	0.1
CSc1ncnc2c1ncn2CCCN(C)Cc1ccco1	0.9%	3	-2.8	0	3	0.1
OCC[C@H]1C[C@@H](O)[C@H](O)[C@]2(Cc3ccccc3O2)O1	1.0%	-4	-3.0	5	2	0.3
CCOc1ccc(NC(=O)C2CCC(CNc3c(N4CCC(C)CC4)c(=O)c3=O)CC2)cc1 (configuration not stated)	10%	6	-3.3	-12	10	-0.1
CCCc1noc(-c2ccc(NCc3ccc(C)cc3)c([N+](=O)[O-])c2)n1	0.6%	·	·	1	·	-0.3
Cc1cc(C(=O)CN2C(=O)NC3(CCCCCC3)C2=O)c(C)n1C	-0.4%	1	4.1	5	2	0.2
O=C(/C=C/c1ccccc1)N1CCN(C(=O)c2ccco2)CC1	1.2%[38.3 µM]	-3	0.0	19	3	0.6
CCOC(=O)c1ccc(NC(=S)NCc2cccnc2)cc1	3.2%	-3	-0.2	-3	1	0.5
O=C(Nc1ccc(Br)cc1Cl)c1ccc2c(=O)n3c(nc2c1)CCC3	2.7%	-4	-2.6	-7	-10	5.9
CC1(OC(=O)CCc2ccccc2)C(=O)C=C2C=C(c3ccc(C#N)cc3)N(Cc3ccco3)C=C2C1=O (configuration not stated)	-0.5%	0	4.0	13	-15	-0.5
C[C@H]1CN([C@@H](C)CO)S(=O)(=O)c2ccc(Br)cc2O[C@H]1CN(C)S(=O)(=O)c1ccccc1	3.0%	2	-4.2	13	-21	0.4
CCOc1cccc2cc(-c3nc4sc5c(c4c(=O)[nH]3)CCC(C)C5)c(=O)oc12 (configuration not stated)	2.4%	·	·	-5	·	0.0
CN(C(=O)COC(=O)c1ccccc1NCCO)C1CCS(=O)(=O)C1 (configuration not stated)	0.4%	-9	-4.5	7	3	0.0
COc1ccc(S(=O)(=O)N(C)C[C@H]2Oc3c(NC(=O)Nc4ccc(C(F)(F)F)cc4)cccc3C(=O)N([C@H](C)CO)C[C@@H]2C)cc1	11%	3	7.1	17	3	0.7
Cc1cc(/C=N/O)c(C)n1-c1ccc(Br)cc1	6.7%	-7	-3.2	-5	-9	0.3
COc1ccc(CC(=O)Nc2cccnc2)cc1	1.3%	-5	5.8	12	11	0.5
CCOC(=O)c1c(NC(=O)COC(=O)/C=C/c2ccco2)sc2c1CC(C)(C)NC2(C)C	-2.9%	-26	-5.9	1	-15	-0.3
COc1ccc(OC)c(NC(=O)Nc2nnc([C@@H]3O[C@H](CO)[C@@H](O)[C@H]3O)s2)c1	1.6%	-4	-3.7	·	3	-0.3
Cc1nc(SCc2ccccc2)c2ccsc2n1	?	1	-24	5	25	1.3
Cc1[nH]c2ccccc2c1CCNS(=O)(=O)c1ccc(S(N)(=O)=O)cc1	2.3%	-6	-4.1	-9	-6	-0.3
CCOC(=O)c1ccc(-c2ccc(C=O)o2)cc1	1.2%	2	-5.6	9	-2	-0.6
C=C(C)c1cccc(C(C)(C)NC(=O)NCc2ccncc2)c1	-0.6%	-5	2.2	1	1	-0.6
CCNC(=O)CC1SC(=Nc2cccc3ccccc23)N(C)C1=O (configuration not stated)	-0.1%	-5	-2.4	-16	3	0.0
O=C(C1=C(O)C(=O)N(Cc2ccco2)C1c1cccc(O)c1)c1ccco1 (configuration not stated)	1.2%	-4	-5.3	-4	9	-1.8
COC(=O)[C@H](CCSC)NC(=O)Nc1ccc(C)c(C)c1	0.4%[38.3 µM]	-10	-2.2	-6	3	-0.1
S=c1[nH]nc(-c2ccccc2)n1CC1CCCO1 (configuration not stated)	-2.6%	-1	2.4	-16	10	-0.4
COc1ccc(S(=O)(=O)Nc2nccs2)cc1OC	0.6%	-5	-2.4	-10	3	-0.2
COc1ccc(Nc2ccc3cc(S(=O)(=O)N4CCCC4)ccc3n2)cc1OC	5.8%	·	·	1	·	2.4
